High-throughput results: PubChem, Fisher Drug Discovery Resource Center
NPYLR7 agonist – mosquito NPYLR7 agonism; actives 0.15% (n = 270,000); HEK293T NPYLR7/Galpha15, GCaMP6s calcium fluorescence; activation, % at 10 µM; in the data active means activation above about 40%;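 further: 0% = vehicle and 100% = reference agonist at the receptor; some compounds past the cut are filed as inactive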
NPYLR7 agonist max-min – also measured in NPYLR7 agonist; calls as there; activation, %; measured here: Max-Min RFU normalised activation; some inactives read as strong as hits;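 span of the calcium signal over five minutes; 0% = vehicle and 100% = native peptide agonist; compound fluorescence can raise it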
An asterisk follows results filed as active; & = joins results of further samples. The list is partial. The share of hits here may be higher or lower than overall.

SMILES | NPYLR7 agonist | NPYLR7 agonist max-min
Cc1cc(NCc2nncn2C(C)C)nc(-c2ccncc2)n1 | 2 | 7
Cc1cc(C)c(C)c(S(=O)(=O)N2CC(=O)N3CCc4ccccc4C3C2)c1C (configuration not stated) | -3 | 13
O=C(CSc1nnc(-c2ccccc2Cl)n1-c1ccccc1Cl)N1CCOCC1 | 6 | 10
CCCCOC(=O)C1=C(C)N(C)C(=O)NC1c1ccccc1I (configuration not stated) | -1 | -5
Cc1nc(CC(=O)NCCn2[nH]c(=O)ccc2=O)c(C)s1 | -1 | -5
O=c1c2cnc3ncnn3c2ccn1-c1ccc2c(c1)OCO2 | 2 | 4
Cc1ccc(-c2cn3cc(Cl)ccc3n2)cc1C | 6 | 4
CCc1nc2ccc(C(=O)N(C)C(C)C)cn2c1N(C)C(=O)C1CCCCC1 | -7 | -12
CCCNC(=O)N(CCN1CCOCC1)Cc1nccn1Cc1ccc(C)cc1 | 4 | 6
O=C1CC(c2ccc(Cl)cc2)ON1Cc1ccc(Cl)cc1 (configuration not stated) | -7 | -9
CN(C)CCCOC1CCN(c2nccnc2C#N)CC1 | 0 | -3
CCC(C)C(NC(=O)Nc1ccc(F)c(Cl)c1)C(=O)Nc1nnc(-c2ccc(N(C)C)cc2)s1 (configuration not stated) | -6 | -5
CC1(C)CNC(=O)c2nc(CC3=CCCCC3)[nH]c2C1 | 2 | 0
Cc1cc(CNC(=O)c2ccn(C)n2)c2[nH]c(-c3ccccc3)c(C)c2c1 | -1 | -5
CCc1nc2c(OCC(=O)N(C)C)cccn2c1N(C)C(=O)c1ccco1 | 10 | -3
Cc1cc(C(F)(F)F)n(CC(C)Cn2cc3ncccc3c2O)n1 (configuration not stated) | 0 | -4
CCc1cccc(N2C(=O)CSC2c2ccc(NC(=O)c3cccc4ccccc34)cc2)c1 (configuration not stated) | -4 | 12
COc1cc2nc(-c3ccc(C)o3)cc(C(=O)NCc3ccccc3C(F)(F)F)c2cc1OC | 5 | -2
CCCn1cc(C(=O)N2CCN(C)CC2)c2nn(-c3ccccc3)c(=O)c-2c1 | 10 | 9
OCCSC1SC(=S)SC1SCCO (configuration not stated) | 3 | 0
COC(=O)c1nc2nc(C)cc(C)n2c1F | 6 | 4
OCc1csc(N2C[C@@H]3[C@H](C2)[C@H]2CC[C@@H]3O2)n1 | 9 | 6
NCCCN | -4 | -7
Fc1cc(F)c(C2NCCCn3cccc32)cc1F (configuration not stated) | 31 | 39
COc1ccc(-c2c3c(=O)n(C)c(=O)n(C)c3c3cccnn23)cc1 | 11 | 3
COc1ccc(NC(=O)N(CCCN2CCOCC2)CC(=O)N(Cc2ccccc2)Cc2ccco2)cc1 | 16 | 15
CCCCOC(=O)C1=C(C)NC(=O)NC1c1ccccc1OCc1ccccc1 (configuration not stated) | 4 | 3
CCCC(O)(CCC)c1ccc(CN(Cc2cccs2)C(C)CC)o1 (configuration not stated) | -9 | -3
CC1C(=O)N(c2ccc3c(c2)CCC3)CCN1C(=O)c1ccc([N+](=O)[O-])cc1 (configuration not stated) | 0 | 3
O=C(Cc1ccccc1)NCCOc1ccc(-c2ccccc2)nn1 | 3 | 1
COCC(=O)Nc1cccc(-c2cc(F)ccc2C)c1 | 6 | 1
COc1ccc(C2CC(=O)C3C(=Nc4ccccc4NC3c3ccccc3OC(C)C)C2)cc1 (configuration not stated) | -6 | -10
CCn1cnc(S(=O)(=O)Nc2cccc(F)c2F)c1 | 8&6 | 5&3
CCOC(=O)N1CCC(NC(=O)C2CC(=O)N(N(C)c3ccccc3)C2)CC1 (configuration not stated) | -2 | -5
O=C(Nc1cccc2c1C(=O)c1ccccc1C2=O)c1ccncc1 | -4 | -8
CC1CCCN(C2(O)C(=O)N(Cc3ccccc3)c3ccccc32)C1 (configuration not stated) | -5 | -5
CCn1nc(C(=O)N(CC2CCCO2)c2nc3c(F)cc(F)cc3s2)cc1C (configuration not stated) | 1 | 2
COc1cccc(CN2CCC(C(=O)NC(c3ccccc3)c3cnccn3)CC2)c1 (configuration not stated) | -2 | 10
O=C(Cn1cnnn1)NC1COc2c1ccc(Cl)c2Cl (configuration not stated) | 6 | 1
O=C(C1=C(O)C(=O)N(c2ncccn2)C1c1ccc(Cl)cc1)c1ccco1 (configuration not stated) | 0 | 1
Cc1nc2c(OCC(=O)C(C)(C)C)cccn2c1N(C)CC1CC1 | 10 | -1
COC(=O)c1ccc(OCC(O)Cn2cc(/C=N\O)c3ccccc32)cc1 (configuration not stated) | -11 | -17
COc1ccc(OC(F)(F)F)cc1CC1(C)C(=O)Nc2ccc(S(=O)(=O)NC3CCCCC3)cc21 (configuration not stated) | 3 | 3
CCCCOC(=O)c1ccccc1NC(=O)N[C@@H](Cc1ccccc1)C(=O)N1CCC(C(=O)N2CCOCC2)CC1 | -6 | 10
COc1cc(OC)cc(C(=O)N2CCN(c3cc(C)ccc3F)C(=O)C2C)c1 (configuration not stated) | 20 | 36

Continued, starting with the last 2 of the part before.
SMILES | NPYLR7 agonist | NPYLR7 agonist max-min
CCCCOC(=O)c1ccccc1NC(=O)N[C@@H](Cc1ccccc1)C(=O)N1CCC(C(=O)N2CCOCC2)CC1 | -6 | 10
COc1cc(OC)cc(C(=O)N2CCN(c3cc(C)ccc3F)C(=O)C2C)c1 (configuration not stated) | 20 | 36
CC(C)NC(=O)c1csc(N2CCN(CC(=O)N(C)C)C2=O)n1 | -2 | -1
CC(=NN1CCN(Cc2ccc(C)cc2C)CC1)c1ccc(Br)cc1 | 1 | 1
CCC(C(=O)Nn1cnc2c(cnn2-c2ccccc2)c1=O)c1ccccc1 (configuration not stated) | 6 | 5
CC(=O)N1CCN(c2ccc([N+](=O)[O-])c(N)c2)CC1 | 14 | 17
Cc1cc2cc(CNC(=O)CCC3CCCCC3)ccc2n1C | -2 | -1
CC(C)c1ccc(CCNC(=O)CSc2nncn2C2CC2)cc1 | 0 | -1
Cc1ccc(Nc2nn(CCC(=O)O)c(=S)n2-c2ccc(C)cc2)cc1 | -6 | -7
COc1ccc(S(=O)(=O)N2CCC(c3nc(-c4ccc(C(F)(F)F)cc4)no3)CC2)cc1 | 24 | 13
OCc1nnc(N2CCCC(c3nc4ccccc4o3)C2)s1 (configuration not stated) | -9 | -9
CCOC(=O)N1CCN(Cc2nc(C(c3ccccc3)c3ccccc3)no2)CC1 | 7 | -5
O=C(C1CN(CC(=O)N2CCNC2=O)c2ccccc2O1)N1CCOCC1 (configuration not stated) | -2 | 20
O=C(Nc1cccc(C(F)(F)F)c1)C1CC=CCC1C(=O)N1CCc2c([nH]c3ccccc23)C1 (configuration not stated) | -6 | -11
CC(c1cnn(-c2ccccc2)c1)n1ccnc1-c1cnc(N(C)C)nc1 (configuration not stated) | 9 | 9
O=C1CCCN1Cc1ccccc1CNS(=O)(=O)NCc1ccccc1 | -2 | 9
COC(=O)C1=CN(CC2CCCO2)C=C(C(=O)OC)C1c1ccc(Cl)s1 (configuration not stated) | 12 | 3
N#Cc1nccnc1Nc1ccc(N2CCCC2=O)cc1 | 7 | 3
O=C(c1cc(Br)cc(Br)c1)N1CCCCCC1 | 10 | 5
COCCCN(Cc1csc(COc2cccc(C)c2)n1)C(=O)C1CCCC1 | 17 | 14
COc1cc(OC)cc(-n2ccc3c(cnc4nc(C)nn43)c2=O)c1 | 1 | 2
COc1ccc(F)c(C(=O)N(C/C=C/c2ccccc2)CCO)c1F | 6 | 3
Cc1c(-n2nnc3ccccc32)cnc2nncn12 | 0 | -1
Cc1ccc(C(=O)OCc2nc3sc(C)c(C)c3c(=O)[nH]2)o1 | -6 | -8
CC(Cn1cccn1)NC(=O)c1ccc(Br)o1 (configuration not stated) | -3 | -1
CN(C(=O)C1CC1)C(Cc1ccc(F)cc1F)C1CCN(C(=O)C2CC(=O)c3ccccc32)CC1 (configuration not stated) | 11 | 2
CN(Cc1ccc(OC(F)F)cc1)C1CCS(=O)CC1 (configuration not stated) | 4 | -7
O=C(c1n[nH]c2c1CCC2)N1CCCC(N2CCN(Cc3ccc4c(c3)OCO4)CC2)C1 (configuration not stated) | 0 | -4
CCc1c(C)c(C#N)c2nc3ccccc3n2c1-n1nc(C)cc1C | 7 | 1
Cc1ccccc1CC1(CO)CCCN(Cc2c(C)nn(C)c2Cl)C1 (configuration not stated) | -11 | -16
Cc1ccc(S(=O)(=O)N2CCN=C2SCc2cccc([N+](=O)[O-])c2)cc1 | 9 | 8
O=C(O)CC1c2cccnc2C(=O)N1Cc1ccccc1 (configuration not stated) | 5 | 15

Entries of single compounds from above.
`COc1cccc(CN2CCC(C(=O)NC(c3ccccc3)c3cnccn3)CC2)c1` (configuration not stated) reads NPYLR7 agonist = -2; NPYLR7 agonist max-min = 10
`Cc1cc(CNC(=O)c2ccn(C)n2)c2[nH]c(-c3ccccc3)c(C)c2c1` reads NPYLR7 agonist = -1; NPYLR7 agonist max-min = -5

Next section
SMILES | NPYLR7 agonist | NPYLR7 agonist max-min
C[C@H](NC(=O)/C(C#N)=C/c1cccc(Br)n1)c1ccccc1 | 9 | 1
CCN(CC)Cc1cnc2c(C(=O)NCc3ccoc3)cnn2c1 | 11 | 12
Oc1ccc(-c2cncc(N3CCN(CCN4CCCC4)CC3)n2)cc1 | 1 | -4
Fc1ccc(-c2cn(-c3ccccc3)c3[n+]2CCS3)cc1 | 0 | 6
CCOC(=O)c1cnc(C)nc1NCc1ccccc1OCC | -1 | -1
CCn1nc(C)c(C(=O)NC(C)Cc2cc(C)[nH]n2)c1C (configuration not stated) | 30 | 20
CCCNC(=O)Cn1nc2c(c1NC(=O)CCc1ccc(OC)cc1)CSC2 | -4 | 4
CCOC(=O)c1sc2nc(C)nc(NC3CCC(O)CC3)c2c1C (configuration not stated) | 3 | 6
NC(Cc1ccc(C(F)(F)F)cc1)c1csc(Nc2nccc(C(F)(F)F)n2)n1 (configuration not stated) | 3 | -1
CCc1nc2ccc(C(=O)N3CCN(S(=O)(=O)CC)CC3)cn2c1N(CC)Cc1ccc(OC)c(OC)c1 | 7 | -1
COCCOc1cccc2nnc(Cl)nc12 | 25 | 11
Cc1cccc2sc(C(=O)N3CCNC(=O)C3)c(Cl)c12 | 0 | -2
O=C(Nc1ccccc1)C(c1ccccc1)N1CCC(O)CC1 (configuration not stated) | 1 | -2
CC(C)(C)NC(=O)NC(=O)COC(=O)C12CC3CC(CC(Br)(C3)C1)C2 | 11 | 12
CC(C)Oc1cc(N2CCCNC(=O)C2)nc(N)n1 | 15 | 4
COCCn1c2c(=O)n(C)c(=O)n(C)c2n2c(-c3cc(Br)ccc3OC)nnc12 | 3 | -2
CCCN1CCC2(CC1)C1CN(CCC)CC=C1C(C#N)C(=N)C2(C#N)C#N (configuration not stated) | 15 | 18
CNC(=O)c1c(C(F)(F)F)nn(C2CCCN(C(C)C)C2)c1C (configuration not stated) | 12 | 4
CCSC1=C(C#N)C2(CCCCC2)C(C#N)C(=O)N1 (configuration not stated) | -3 | -5
CCOc1ccccc1Nc1nnc(SCc2ccn(C)c(=O)c2)s1 | 4 | 2
COCCNC(=O)C(NC(=O)c1ccccc1Cl)C1CCN(C(=O)c2cccc(F)c2)CC1 (configuration not stated) | 2 | 5
O=C(NCc1ccccc1)c1cc(C2COCCN2C(=O)c2ccc3c(c2)CCO3)on1 (configuration not stated) | 0 | -1
Cc1cc(Cl)cc2c1N(CC(=O)Nc1c(C)nn(C)c1C)CCC2 | 0 | -1
C[C@@H](O)[C@H]1C(=O)N2C(C(=O)O)=C(SCCN=CN)C[C@H]12 | -3&-2 | 1&-5
CCn1nccc1NC(=O)C1(C)CCN1C(=O)CC1CCCC1 (configuration not stated) | 7 | 4
O=C(NCCCn1ccnc1)c1cnn2c1NC(c1cccs1)CC2C(F)(F)F (configuration not stated) | -14 | -16
CCOC(=O)c1cc(-c2ccc(CC)cc2)n(C2CCN(C(=O)C(CC)c3ccccc3)CC2)n1 (configuration not stated) | 4 | 2
CC1CN(CC(=O)NC(C)(C#N)C(C)C)C(c2ccccc2)CO1 (configuration not stated) | 2&4 | 3&4
O=C1NC(=O)C(=Cc2nc(-c3cccc([N+](=O)[O-])c3)n3ccccc23)C(=O)N1 | 0 | 6
O=S(=O)(Cc1ccccc1)N1CCN(S(=O)(=O)c2ccc3ccccc3c2)CC1 | 0 | 0

6 entries picked at random from the list so far, as already listed:
SMILES | NPYLR7 agonist | NPYLR7 agonist max-min
CCn1nccc1NC(=O)C1(C)CCN1C(=O)CC1CCCC1 (configuration not stated) | 7 | 4
CC1CN(CC(=O)NC(C)(C#N)C(C)C)C(c2ccccc2)CO1 (configuration not stated) | 2&4 | 3&4
CCOc1ccccc1Nc1nnc(SCc2ccn(C)c(=O)c2)s1 | 4 | 2
O=S(=O)(Cc1ccccc1)N1CCN(S(=O)(=O)c2ccc3ccccc3c2)CC1 | 0 | 0
Cc1cc(Cl)cc2c1N(CC(=O)Nc1c(C)nn(C)c1C)CCC2 | 0 | -1
O=C(NCc1ccccc1)c1cc(C2COCCN2C(=O)c2ccc3c(c2)CCO3)on1 (configuration not stated) | 0 | -1

By substructure: the compounds so far containing a COOH group
SMILES | NPYLR7 agonist | NPYLR7 agonist max-min
Cc1ccc(Nc2nn(CCC(=O)O)c(=S)n2-c2ccc(C)cc2)cc1 | -6 | -7
O=C(O)CC1c2cccnc2C(=O)N1Cc1ccccc1 (configuration not stated) | 5 | 15
C[C@@H](O)[C@H]1C(=O)N2C(C(=O)O)=C(SCCN=CN)C[C@H]12 | -3&-2 | 1&-5

New compounds follow:
SMILES | NPYLR7 agonist | NPYLR7 agonist max-min
COc1ccc(C(=O)Nc2ccc(NC(=O)c3ccc(C(C)(C)C)cc3)cc2)cc1[N+](=O)[O-] | 14 | 16
O=C(CCC1CCCC1)Nc1c(-c2ccc(C(F)(F)F)cc2)nc2ccccn12 | -1 | 5
CC(NCc1cnn(C)c1)c1noc(-c2ccc(Cl)cc2)n1 (configuration not stated) | 2 | -1
O=C(O)CN1C(=O)/C(=C\c2ccc(O)c(O)c2)SC1=S | 13 | 7
O=C(CN1CN(c2ccccc2)C2(CCN(C(=O)Nc3ccc(Cl)cc3Cl)CC2)C1=O)N1CCCC1 | -8 | 2
